# TRPML1 inh = blocks the human TRPML1 channel; Q9GZU1; TRPML1-inducible cells, Ca2+ dye fluorescence, FDSS; stronger effect = lower value; inhibition of EC80 agonist-evoked calcium signal; activity change, negative = inhibition, % (no concentration beside the values); 0.02% of 390,000 active; AID 624415; in the data active means activity change below about -50%; inconclusive means about -30% to -50%; inactive means above about -30%;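 note: stimulus is agonist 54-4 at its EC80 concentration; % is set by controls: 0 for no effect and ±100 for the full control effect; compound concentration not given in the record; the text of the record puts the active cut at -80%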
# Target sequence (Q9GZU1 whole entry, looked up): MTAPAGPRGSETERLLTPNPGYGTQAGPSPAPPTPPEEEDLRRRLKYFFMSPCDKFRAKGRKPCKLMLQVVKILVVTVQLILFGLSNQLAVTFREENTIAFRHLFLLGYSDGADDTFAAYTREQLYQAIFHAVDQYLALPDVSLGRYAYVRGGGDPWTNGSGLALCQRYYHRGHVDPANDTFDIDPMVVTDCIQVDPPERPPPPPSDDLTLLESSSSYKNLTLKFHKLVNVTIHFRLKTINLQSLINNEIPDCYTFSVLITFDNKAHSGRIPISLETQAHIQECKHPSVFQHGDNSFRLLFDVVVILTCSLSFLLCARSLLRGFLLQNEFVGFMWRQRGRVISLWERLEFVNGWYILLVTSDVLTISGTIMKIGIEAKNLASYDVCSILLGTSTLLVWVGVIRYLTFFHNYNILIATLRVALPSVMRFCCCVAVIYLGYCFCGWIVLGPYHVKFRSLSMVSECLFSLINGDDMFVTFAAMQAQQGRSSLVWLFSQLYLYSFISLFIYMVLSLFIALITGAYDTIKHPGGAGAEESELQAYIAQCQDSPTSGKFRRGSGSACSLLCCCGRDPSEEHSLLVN
#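 Calcium fluorescence in TRPML1-DL cells induced overnight with Tet: a 110 s read after compound pin addition, then a 110 s antagonist read after challenge with 54-4 at 4 uM final (EC80).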
# TRPML1 agonist = activates the human TRPML1 channel; 0.12% of 410,000 active; activation, % (concentration not given with the values); TRPML1-expressing cells, Ca2+ dye fluorescence, FDSS; host cell line not named in the record; reference of the full effect not given here; in the data active = activation above about 50%; inconclusive = about 30% to 50%; inactive = below about 30%; note: 0% is about no effect; the text of the record puts the active cut at 80%
#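 Kinetic FDSS Ca2+ read in Tet-induced TRPML1-DL cells (ABD Ca8 dye plus quencher, 45-90 min RT loading): baseline, then compound, then 110 s agonist window; EC80 agonist 54-4 at 4uM final added afterwards for a 110 s antagonist window.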
# gsp agonist = gsp mutant agonism; Potency, µM (doses to about 76.9 µM), for the others: at the highest dose activation (cAMP increase), actives largely listed as activators; 0.13% of 340,000 active; gsp mutant cells, cAMP HTRF, 30 min; control for the full effect not named in the record; active = well fitted activation curve with a large enough effect; inconclusive = small, poorly fitted or top-dose-only effect, or another doubt; inactive = no such curve, though single readings can be large or run the other way; cell line not stated here;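 note: phosphodiesterase inhibitor Ro 20-1724 added with compounds to block cAMP breakdown; potency is the fitted concentration of half-maximal effect; nearly all actives have a fitted effect of over 60% in size; about a fifth of the inactives were tested at one dose only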
#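 Cells in DMEM/10% FBS with G418 were pretreated with compounds in DMSO plus […] (300 uM stock) for 30 min at 37C. cAMP was measured by HTRF (cAMP-d2 plus anti-cAMP antibody-K) after 30 min at room temperature.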
# Menin-MLL FL inh = inhibitors of human menin-MLL interaction, wild-type MLL peptide; Fluorescence polarization, fluorescein-MLL peptide displacement from menin; FP activity change, % at 61.4 µM; 290,000 tested, under 10 active; inconclusive = falling polarisation curve, or a change in total fluorescence; inactive = total fluorescence flat and polarisation flat or rising; no compound was filed as active; the % refers to the polarisation; negative = inhibition;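 note: % of control where 0% means no effect; inhibitors lower the polarisation; unlabelled MLL peptide was the positive control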
# ClpP mod = qHTS Assay for Activators of ClpP; ATP-dependent Clp protease proteolytic subunit (Bacillus subtilis (strain 168)), P80244; purified B. subtilis ClpP, FRET peptide cleavage, 20 min; Potency, µM (highest dose often 57.5 µM), without a hit: at the highest dose activity change, negative = active; 1.9% of 340,000 active; AID 651965, 2013; active = well fitted falling curve with a large enough effect; inconclusive = small, poorly fitted or top-dose-only effect; inactive = no such curve, though single readings can be large or run the other way; note: potency is the fitted concentration of half-maximal effect; the source files actives as falling curves though it sought activators and does not explain the sign; nearly all actives have a fitted effect of over 65% in size; many hits overshoot -100%
# Target sequence (P80244 whole entry, looked up): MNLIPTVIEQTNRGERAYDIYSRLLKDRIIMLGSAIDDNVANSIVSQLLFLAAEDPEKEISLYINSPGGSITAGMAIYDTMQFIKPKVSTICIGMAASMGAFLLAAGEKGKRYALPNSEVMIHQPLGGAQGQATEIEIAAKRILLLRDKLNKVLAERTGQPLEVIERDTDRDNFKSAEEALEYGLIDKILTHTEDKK
#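 Purified B. subtilis ClpP, 10 microg/mL final in Tris/HCl pH8 with KCl, BSA, glycerol and Tween-20, cleaved an Abz/nitrotyrosine-quenched decapeptide. Fluorescence (ex 320, em 430) was read at 0 and 20 min at room temperature. Delta was normalized to 5.8 microM ADEP and DMSO/no-enzyme controls.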
# gsp antag = antagonizes gsp, the McCune-Albright syndrome mutation. gsp-mutant cells, cAMP HTRF, 30 min; control for the full effect not named in the record. AID 624288. 0.4% of 340,000 active. Potency, µM (top dose mostly 76.9 µM), without a hit: at the top dose activity change, negative = inhibition, most hits filed as inhibitors; active = falling curve of any shape with a large fitted effect; inconclusive = falling curve, mostly with a smaller effect; inactive = flat or rising curve; cell line not stated here;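 note: intracellular cAMP measured with PDE inhibitor Ro 20-1724 present during compound exposure; potency is the fitted concentration of half-maximal effect; % is set by controls: 0 for no effect and ±100 for the full control effect; nearly all actives have a fitted effect of over 65% in size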
#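 Measurement of cellular cAMP by homogeneous time-resolved fluorescence following a 30 min compound exposure at 37C. The PDE inhibitor […] was present throughout; the assay buffer was DPBS with 0.05% BSA and 0.005% Tween 20.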
# Starred values were filed as active, the others as inactive; ? = inconclusive; / = not tested or not shown; [ ] = dose if it differs, or a comment.
smiles,TRPML1 inh,TRPML1 agonist,gsp agonist,Menin-MLL FL inh,ClpP mod,gsp antag
CCCn1c(C(=O)OC)cc2c1ccn2-c1ccc(F)cc1,8,0.0,?,6.9,28µM*,-6%
COc1ccccc1N1C(=O)C2C3C=CC(C3)C2(C)C1=O (configuration not stated),-15,-0.6,13%,1.6,0.7%,-1%
Nc1nc(N2CCN(C(c3ccccc3)c3ccccc3)CC2)n[nH]1,-14,-0.9,-31%[15.4 µM],0.5,/,-2%
CCCn1nnnc1NCc1cccc(OC)c1OCC,-20,1.0,-23%,-1.7,0.4%,8%
O=C(CSc1nnc(NC2CC2)s1)Nc1ccc(N2CCOCC2)cc1,-3,0.2,-37%[inhibitor],/,-0.4%,3%
COc1ccc(CNC(=S)N/N=C(\C)c2ccc(OC)cc2)cc1,10,0.9,25%[15.4 µM],1.1,/,-5%
COc1ccccc1CN(C)CC(=O)Nc1cccc(S(=O)(=O)N2CCCC2)c1,8,-0.1,-7%[15.4 µM],/,0.7%,-9%
CCOC(=O)N1CCC(N2Cc3cccc(C(=O)NCc4ccc(C)cc4)c3C2=O)CC1,-2,0.1,?,-2.3,-0.8%,-8%
CCCc1cc(=O)[nH]c(SCC(=O)Nc2sc(C(N)=O)c(C)c2C(=O)OCCOC)n1,-2,1.1,13%,/,-5.1%,-5%
O=C(NCCCN1CCOCC1)c1ccc(S(=O)(=O)Nc2ccccc2F)cc1,-9,-0.3,-124%[inhibitor],/,-4.4%,10%
COc1ccccc1NC(C)C(=O)N/N=C/c1cccs1 (configuration not stated),26,2.5,9%[15.4 µM],0.0,/,-13%
Cc1onc(-c2ccccc2)c1C(=O)Nc1nnc(CC(C)(C)C)s1,2,0.8,-3%,-2.0,/,-24%
c1ccc2[nH]c(NCCN3CCOCC3)nc2c1,-20,-0.3,-34%,0.0,-2.2%,6%
O=C(Nc1cc([N+](=O)[O-])ccc1F)c1ccc2c(c1)OCCO2,-8,0.3,-2%[15.4 µM],0.2,/,-10%
CCC1CCCCN1CCCNC(=O)c1cc2c(=O)oc3ccc(C)cc3c2s1 (configuration not stated),-1,-0.7,-4%,/,3.9%,16%
CCCOc1ccc(C(=O)Nc2ccc(Cl)c(-c3nc4ncccc4o3)c2)cc1,15,0.3,/,/,-13%,/
Cc1cccc(-n2cc[nH]c2=S)c1,7,4.3,-45%[inhibitor],1.0,1.0%,7%
COC(=O)CN1C(=O)C(O)(CC(=O)c2ccccc2)c2ccccc21 (configuration not stated),-3,-0.9,0%,0.1,-0.8%,7%
Cc1cc(Br)ccc1NC(=O)CN1C(=O)C2CC=CCC2C1=O (configuration not stated),5,-0.5,23%,/,0.3%,10%
CCCN(Cc1cc2cccc(C)c2[nH]c1=O)C(=O)c1cccc(OC)c1,-6,1.7,-36%[inhibitor],/,-26%,-5%
Cn1c(SCC(=O)Nc2ccc(NC(=O)c3ccccc3)cc2)nnc1-c1ccncc1,19,-0.2,17%[15.4 µM],0.4,/,-40%
Cc1ccc2[nH]c(O)c(N=Nc3nc4ccccc4s3)c2c1,8,0.1,-4%[15.4 µM],33[activator],/,-8%
Cc1ccc(S(=O)(=O)/N=C2\C=C(Nc3cccc(C(=O)O)c3)C(=O)c3ccccc32)c(C)c1,-3,2.7,9%[15.4 µM],-15,/,-10%
CSc1ccccc1NC(=O)C1=CC(c2ccc3c(c2)OCO3)=NS(=O)(=O)N1C,11,2.0,/,/,-2.2%,/
COc1ccccc1NC(=O)CCSc1nnc(-c2ccc(O)cc2)o1,-8,-0.3,35%[15.4 µM],0.1,/,-16%
O=C(Nc1ccc(F)cc1F)N1CCCC(c2nc(-c3ccc(F)cc3)no2)C1 (configuration not stated),-22,3.9,?,-0.1,0.7%,-12%
COC(=O)c1cc(C(=O)N2CCc3ccccc32)cc([N+](=O)[O-])c1,-4,2.5,-22%,0.2,0.6%,11%
O=C(Cn1cc2c(n1)CCCCC2)Nc1c(F)c(F)cc(F)c1F,-1,0.3,-31%[inhibitor],2.6,0.6%,2%
O=C(O)c1ccccc1Nc1cccc(C(F)(F)F)c1,-2,-0.6,/,2.6,0.5%,-10%
COC(=O)c1cc(C#N)c(N2CCN(C)CC2)nc1C,20,1.0,21%[15.4 µM],-0.7,/,/
Cc1ccc2c(c1)N(CCCC(=O)NCc1cccc(F)c1)C(=O)CO2,-11,0.0,/,/,-5.7%,/
Cc1onc(-c2ccc(F)cc2F)c1C(=O)Nc1cccc(C(F)(F)F)c1,12,2.0,/,/,0.3%,/
C=CCN(C(=O)Nc1ccccc1)C1CC(=O)N(c2ccc(OC)cc2)C1=O (configuration not stated),25,0.1,-2%,0.7,-0.2%,2%
O=C(CCC(=O)c1ccc(Oc2ccccc2)cc1)Nc1cccc(Cl)c1,1,1.4,-26%[15.4 µM],4.0,-0.2%,-1%
CC(C)C(C(=O)NCC1CCCO1)N(C(=O)CNS(=O)(=O)c1ccccc1)C1CCCCC1 (configuration not stated),12,0.0,15%[15.4 µM],6.7,/,-10%
Fc1ccc(/C=N/NC2=Nc3cccc4cccc2c34)cc1,1,3.3,-7%,/,-1.8%,-11%
COC/C=C/C1=CC2=CC(=O)C(C)(OC(=O)c3cnc4ccccc4n3)C(=O)C2=CN1c1ccccc1 (configuration not stated),0,3.1,/,1.3[11.7 µM],2.8%,-13%
CC1CC(C(F)(F)F)n2ncnc2N1 (configuration not stated),4,0.9,-2%,1.1,1.2%,0%
O=C(NCCCN1CCCC1=O)c1cc(-c2ccc(F)cc2)nc2ccccc12,-12,0.6,1%[15.4 µM],/,8.9µM*,-8%
N=C1/C(=C/c2ccc(-c3cccc(C(=O)O)c3)o2)C(=O)N=C2SC(CC(=O)N3CCOCC3)=NN12,-18,0.4,?,26,-4.7%,-9%
O=C(Nc1ccccc1)C1CC(=O)N(Cc2ccccc2)C1 (configuration not stated),22,0.7,?,2.3,0.5%,3%
Cc1ccc(NC(=O)c2ccc(Cl)c(S(=O)(=O)Nc3c(C)n(C)n(-c4ccccc4)c3=O)c2)cc1Cl,-7,0.6,-2%[15.4 µM],/,-0.9%,-15%
CCC(C)NC(=O)CCc1c(C)nc2c(c(C)nn2-c2ccccc2)c1C (configuration not stated),12,0.0,-35%[inhibitor],-4.0,3.4%,-17%
O=C(NC1CCCCC1)C1CCC(=O)N(Cc2cccc(C(F)(F)F)c2)C1 (configuration not stated),-3,0.3,-5%,2.3,-1.4%,9%
Cc1c(Cl)cnc(NC(=O)COC(=O)c2ccc([N+](=O)[O-])s2)c1Cl,-4,-0.2,23%,0.4,/,-9%
CC(C)(C)c1ccc(OC(=O)Nc2ccc(O)c(C(=O)O)c2)cc1,30,3.1,-13%,-3.7,3.3%,6%
CC(=O)N1CCN(C23CC4CC(CC(C4)C2)C3)CC1,14,0.1,-20%,-0.1,0.2%,9%
Cc1ccnc(NC(=O)CCC(=O)N(CC(=O)NC2CCCCC2)Cc2cccs2)c1,-8,0.0,13%[15.4 µM],0.3,/,/
COc1ccc(C)cc1NCc1cccc(OC)c1OC,-5,2.7,-19%,0.4,0.5%,-1%
Cc1ccc(N(CC(O)CON=C2c3ccccc3-c3ccccc32)S(C)(=O)=O)cc1 (configuration not stated),-6,1.6,-36%[inhibitor],2.6,-0.8%,1%

# Additional results follow:
smiles,TRPML1 inh,TRPML1 agonist,gsp agonist,Menin-MLL FL inh,ClpP mod,gsp antag
Cc1csc(=O)n1CCC(=O)OCC(=O)c1ccc(Br)cc1,-9,-0.7,10%,/,1.4%,-7%
CC(=O)c1ccc(NC(=O)c2ccc(-n3cncn3)c([N+](=O)[O-])c2)cc1,-14,-0.3,-16%,/,2.4%,-30%
O=C(CN1C(=O)CSc2ccc(S(=O)(=O)N3CCOCC3)cc21)N1CCCCC1,4,1.4,?,-0.6,-0.3%,1%
O=C(Nc1ccc(-c2nc3cc(Cl)ccc3o2)cc1)c1cc2ccccc2o1,-2,0.3,/,/,-9.4%,/
COc1ccc(N2CCN(C(=O)CN3C(=O)COc4ccc(S(=O)(=O)N5CCC(C)CC5)cc43)CC2)cc1,9,2.3,/,/,2.3%,/
CCOC(=O)C(NC(=O)c1ccccc1)(N1CCOCC1)C(F)(F)F (configuration not stated),-10,-0.6,13%,0.7,-2.5%,-10%
COc1ccc(-n2nc3ccc(N)cc3n2)cc1,-6,-0.9,20%,/,4.1%,/
CC(C)CC(=O)Nc1cc(NC(=O)CC(C)C)cc(C(=O)NC(C)(C)C)c1,3,-1.0,-1%,-1.2,-1.3%,-2%
COc1ccc2cc(C3(C)NC(=O)NC3=O)ccc2c1 (configuration not stated),-12,-0.4,-3%,-4.9,-6.3%,3%
COC(=O)c1ccccc1NC(=O)CN1C(=O)COc2ccccc21,12,2.4,/,/,-1.3%,/
CCCCn1c(N)c(N(CCC(C)C)C(=O)c2ccc(COc3ccccc3)o2)c(=O)[nH]c1=O,-5,0.4,-2%[15.4 µM],/,-5.4%,-10%
O=C(Cc1ccccc1)Nc1ccccc1C(=O)NCC1CCCO1 (configuration not stated),-1,-0.5,10%[15.4 µM],/,-3.0%,6%
COc1ccc(NC(=O)c2cc(C)no2)cc1,/,/,26%,-3.9,1.1%,1%
COc1ccc(NC(=O)CSc2ncc3c(n2)-c2ccccc2N(Cc2ccc(C)cc2)S3(=O)=O)cc1Cl,-9,-0.4,/,/,?,/
COc1cc(CCC(=O)Nc2nnc(-c3cccnc3)s2)cc(OC)c1OC,-16,1.0,-14%,-2.7,-18%,-3%
O=C(CC(C(=O)O)P(=O)(c1ccccc1)c1ccccc1)c1ccccc1 (configuration not stated),-12,0.4,19%,-1.8,/,9%
Cc1ccsc1C(=O)Nc1cccc(-n2cnnn2)c1,10,0.4,5%,4.6,-1.0%,3%
CC(C)(C)OC(=O)NCCCCCc1nnc(SCc2c(F)cccc2Cl)o1,0,1.6,2%,-0.5,/,-20%
O=C(NCCN1CCOCC1)c1ccccc1OCc1ccccc1,4,-0.3,-19%[15.4 µM],/,0.5%,12%

# Compound profiles, from the list above. Order of screens: TRPML1 inh, TRPML1 agonist, gsp agonist, Menin-MLL FL inh, ClpP mod, gsp antag
# CSc1ccccc1NC(=O)C1=CC(c2ccc3c(c2)OCO3)=NS(=O)(=O)N1C reads 11, 2.0, /, /, -2.2%, /
# COc1ccc(-n2nc3ccc(N)cc3n2)cc1 reads -6, -0.9, 20%, /, 4.1%, /

# Screening results (PubChem)
